High-throughput results as filed in PubChem.
TRPML1 ag: qHTS for Agonists of the Human Mucolipin Transient Receptor Potential 1 (TRPML1) | actives 0.12% (n = 410,000) | TRPML1-expressing cells, Ca2+ dye fluorescence, FDSS; host cell line not named in the record; reference of the full effect not given here | activation, % (concentration not given with the values) | Mucolipin-1 (Homo sapiens), Q9GZU1; in the data active = activation above about 50%; inconclusive = about 30% to 50%; inactive = below about 30%; further: 0% is about no effect; the text of the record puts the active cut at 80%
Target sequence (Q9GZU1 whole entry, looked up): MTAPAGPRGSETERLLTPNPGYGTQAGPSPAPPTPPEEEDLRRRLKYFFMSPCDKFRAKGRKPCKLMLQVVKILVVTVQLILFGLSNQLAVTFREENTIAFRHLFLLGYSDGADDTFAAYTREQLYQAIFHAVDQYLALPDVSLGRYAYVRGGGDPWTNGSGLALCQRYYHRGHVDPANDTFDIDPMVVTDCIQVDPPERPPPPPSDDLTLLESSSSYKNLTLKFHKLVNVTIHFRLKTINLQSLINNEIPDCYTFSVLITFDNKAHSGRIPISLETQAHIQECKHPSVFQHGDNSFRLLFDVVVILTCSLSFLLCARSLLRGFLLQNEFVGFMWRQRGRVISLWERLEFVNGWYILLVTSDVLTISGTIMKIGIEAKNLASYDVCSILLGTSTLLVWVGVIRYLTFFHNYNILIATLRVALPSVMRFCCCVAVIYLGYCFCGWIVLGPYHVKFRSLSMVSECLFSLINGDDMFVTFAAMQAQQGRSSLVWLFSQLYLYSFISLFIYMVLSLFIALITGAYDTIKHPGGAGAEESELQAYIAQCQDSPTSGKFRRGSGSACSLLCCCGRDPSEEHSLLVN
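Tet-induced TRPML1-DL cells, 1,500 per well, cultured overnight, were loaded with a no-wash Ca2+ dye for 45–90 min. Calcium fluorescence was recorded on the FDSS for 110 s after compound addition, before the EC80 agonist (4 uM 54-4) was added.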
ClpP mod: qHTS Assay for Activators of ClpP. ATP-dependent Clp protease proteolytic subunit (Bacillus subtilis (strain 168)), P80244. purified B. subtilis ClpP, FRET peptide cleavage, 20 min. AID 651965, 2013. actives 1.9% (n = 340,000). Potency, µM (doses to about 57.5 µM), inactives show top-dose activity change, negative = active; active = well fitted falling curve with a large enough effect; inconclusive = small, poorly fitted or top-dose-only effect; inactive = no such curve, though single readings can be large or run the other way; further: potency means the concentration at half of the fitted maximal effect; the source files actives as falling curves though it sought activators and does not explain the sign; nearly all actives have a fitted effect of over 65% in size; many hits overshoot -100%
Target sequence (P80244 whole entry, looked up): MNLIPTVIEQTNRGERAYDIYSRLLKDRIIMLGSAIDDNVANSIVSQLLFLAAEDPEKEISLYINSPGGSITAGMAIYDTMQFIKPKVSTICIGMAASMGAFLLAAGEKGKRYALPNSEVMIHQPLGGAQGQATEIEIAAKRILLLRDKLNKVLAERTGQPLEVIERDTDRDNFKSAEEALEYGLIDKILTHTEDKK
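ClpP 10 microg/mL final, pH 8 Tris/KCl buffer with BSA, glycerol, Tween-20; compound pinned in; FRET-FV substrate; RT 20 min; Ex320/Em430; ΔFRET vs ADEP 5.8 microM, DMSO, no enzyme.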
Sfp PPTase inh: qHTS Assay for Inhibitors of Bacillus subtilis Sfp phosphopantetheinyl transferase (PPTase); actives 3.5% (n = 310,000); Biochemical Sfp PPTase activity, qHTS; Potency, µM, for inactives: max response, negative = inhibition, usual class: inhibitors; 4'-phosphopantetheinyl transferase ffp (Bacillus subtilis), Q9F4F7; active means well fitted inhibition curve with a large enough effect; inconclusive means small, poorly fitted or top-dose-only effect, or another doubt; inactive means no such curve, though single readings can be large or run the other way;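 further: the enzyme is Sfp with the accession as filed and its product quenches rhodamine fluorescence; potency means the concentration at half of the fitted maximal effect; 0% = enzyme reaction without inhibitor and -100% = no enzyme wells; top concentration of the series not given in the record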
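Buffer: 50 mM Hepes-Na pH 7.6, 10 mM MgCl2, 0.01% Nonidet P-40, 0.01% BSA. Enzyme 15 nM, pre-exposed to compound 15 min; substrates then added and fluorescence change tracked over 30 min.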
PINK1 expr mod: A Quantitative High throughput Screen to Identify Chemical Modulators of PINK1 Expression | actives 0.2% (n = 410,000) | Potency, µM (top dose mostly 76.6 µM), for inactives: at the highest dose activation (PINK1 increase), usual class: activators | PINK1 immunofluorescence, high-content cytometry, 24 h; active = well fitted activation curve with a large enough effect; inconclusive = small, poorly fitted or top-dose-only effect; inactive = flat fitted curve, though single readings scatter; cell line not stated here;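 further: potency means the concentration at half of the fitted maximal effect; % of control where 0% means no effect; nearly all actives have a fitted effect of over 65% in size; a mitochondrial uncoupler was the plate control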
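PINK1 protein level read as immunofluorescence by microplate cytometer in a fixed, stained stable cell line after 24 h exposure to five compound concentrations, with CCCP as control.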
TRPV1 PAM: HTS Assay for Compounds that Act as Potentiators of the Vanilloid Receptor 1; Transient receptor potential cation channel subfamily V member 1 (Homo sapiens), Q8NER1; TRPV1-expressing cells, Fluo-8 calcium influx, capsaicin EC20 potentiation; host cell line not named in the record; control for the full effect not named in the record; potentiation, % at 8.33 µM; actives 0.02% (n = 320,000); active means potentiation above 80%; inconclusive means 30% to 80%; inactive means below 30%; further: 0% is about no effect
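TRPV1-expressing cells were cultured overnight at 35.5C and loaded with Fluo-8 calcium dye for 40 to 90 min at room temperature. After a 10 s baseline, compound was added and calcium influx was read kinetically for 3 min (ex 480/em 520 nm).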
TRPML1 blocker: qHTS for Inhibitors of the Human Mucolipin Transient Receptor Potential 1 (TRPML1) | activity change, negative = inhibition, % (test concentration not listed) | TRPML1-inducible cells, Ca2+ dye fluorescence, FDSS; stronger effect = lower value; inhibition of EC80 agonist-evoked calcium signal | Mucolipin-1 (Homo sapiens), Q9GZU1 | actives 0.02% (n = 390,000); in the data active means activity change below about -50%; inconclusive means about -30% to -50%; inactive means above about -30%;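 further: stimulus is agonist 54-4 at its EC80 concentration; on the % scale 0 is the no-effect control and ±100 the full control effect; compound concentration not given in the record; the text of the record puts the active cut at -80%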
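Calcium fluorescence in TRPML1-DL cells induced overnight with Tet: a 110 s read after compound pin addition, then a 110 s antagonist read after challenge with 54-4 at 4 uM final (EC80).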
Menin MLL FP FL: qHTS Assay for Inhibitors Targeting the Menin-MLL Interaction in MLL Related Leukemias: Competition With Fluorescein Labeled MLL-derived Peptide; FP activity change, % at 61.4 µM; 290,000 tested, under 10 active; Fluorescence polarization, fluorescein-MLL peptide displacement from menin; inconclusive = falling polarisation curve, or a change in total fluorescence; inactive = total fluorescence flat and polarisation flat or rising; no compound was filed as active; the % refers to the polarisation; negative = inhibition;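 further: % of control where 0% means no effect; inhibitors lower the polarisation; unlabelled MLL peptide was the positive control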
Starred values were filed as active, the others as inactive; ? = inconclusive; · = not tested or not shown; [ ] = remark or other dose.

SMILES,TRPML1 ag,ClpP mod,Sfp PPTase inh,PINK1 expr mod,TRPV1 PAM,TRPML1 blocker,Menin MLL FP FL
COc1ccc(C(C(=O)NCc2ccccc2)N(C(=O)c2snc(C(N)=O)c2N)c2ccccc2OC)cc1OC (configuration not stated),1.2,·,13%,-0.7%,14,5,6.5
O=C(Cc1ccc(NC(=O)C2CCN(C(=O)C3CCCC3)CC2)cc1)Nc1ccc(C(=O)N2CCOCC2)cc1,-0.6,1.1%,·,3.0%,·,8,·
O=C(Nc1ccccc1N1CCOCC1)c1ccc2ccccc2c1,-0.6,·,-2%,-1.6%,-5,6,-0.3
COc1ccc(NC(=O)C2CCCN(c3c4c(nc5ncnn35)CCC4)C2)cc1 (configuration not stated),0.8,-2.1%,-20%,3.7%[38.3 µM],-3,13,0.3
CCN(CC(=O)Nc1cc(Cl)ccc1C)C(=O)CCc1nc2ccccc2c(=O)[nH]1,3.0,-5.3%,·,0.0%,3,16,·
O=C(COC(=O)c1ccccc1NCCO)Nc1ccc(S(=O)(=O)NC2=NCCCCC2)cc1,2.0,14µM*,·,-0.1%,·,37,·
CC[C@]12C(=O)N(C)C[C@H]([C@@H]3C(=O)N(Cc4ccccc4)C(=O)[C@@H]31)N2C(=O)c1ccc(F)cc1,-0.3,0.4%,·,0.1%,·,-5,·
Cc1ccc(-c2onc(C)c2C)cc1S(=O)(=O)N1c2ccccc2CC1C (configuration not stated),1.5,0.9%,·,3.8%,·,31,·
Nc1ncnc2c1ncn2[C@@H]1O[C@H](CNS(=O)(=O)CCCCl)[C@@H](O)[C@H]1O,-0.3,-3.3%,·,0.4%,·,-9,·
CC(C)[C@H](NC(=O)[C@H](Cc1ccccc1)n1c(=O)[nH]c2ccccc2c1=O)C(=O)N1CCC[C@H]1C(=O)O,·,?,1%,1.1%,-1,·,-1.3
Cc1ccc(C(=O)Nc2ccc(N3CCOCC3)cc2N2CCOCC2)cc1,-0.4,1.5%,6%,0.1%,-14,-7,-5.9
CC(C)c1ccc(NC(=S)NC2CCCCCC2)cc1,-0.6,·,10%,?,-10,20,1.6
COc1ccc(NC(=O)Nc2ccc3c(c2)C(=O)N([C@H](C)CO)C[C@H](C)[C@@H](CN(C)C(=O)NC(C)C)O3)cc1,-0.1,-2.0%,·,4.1%,·,-10,·
CCNC(=O)c1cc2c(=O)n3cccc(C)c3nc2n(Cc2ccc(C)cc2)c1=N,-0.1,4.5µM*,3%,-0.2%,3,13,6.3
Cc1cc(C)n2nc(SC(C)C(=O)N3CCOCC3)nc2n1 (configuration not stated),-0.2,?,·,-2.3%,7,-4,·
Cc1ccccc1-c1nn(-c2ccccc2)cc1C(=O)NCC(c1ccco1)N1CCCC1 (configuration not stated),1.0,-0.8%,·,5.1%,-6,-3,·
CCCc1cc(=O)[nH]c(SCC(=O)Nc2ccc(OCc3ccccc3)cc2)n1,0.0,0.1%,·,1.4%,13,1,·
O=C(c1ccc(Br)s1)N1CCCC1,-0.5,-0.1%,18%,?,5,6,3.4
Cc1cc(=O)n2nc(N3CCCC(C(=O)NCc4ccccc4Br)C3)sc2n1 (configuration not stated),-0.7,-1.0%,11%,-0.3%,-14,-3,·
CC(=O)c1ccc(Nc2nc(C(N)c3ccccc3)cs2)cc1 (configuration not stated),-0.2,0.3%,·,-0.2%,·,·,·
O=C(C[n+]1ccccc1)N/N=C/c1ccc(O)cc1,0.3,·,2%,0.0%,-4,-3,8.0
COc1ccccc1C(c1nnnn1C(C)C)N1CCN(C(=O)c2ccco2)CC1 (configuration not stated),0.2,·,5%,-2.6%,-2,11,-2.7
CCC1(C(=O)c2ccc(Cl)cc2)C2c3ccccc3OC(=O)C21C(=O)Nc1ccccc1 (configuration not stated),4.2,-3.2%,17%,0.3%,-12,5,9.6
Cc1cc2c(N3CCCCC3C)ncnc2s1 (configuration not stated),0.7,-3.1%,1%,0.8%,-14,23,1.3
O=C(NCc1ccco1)c1ccc([N+](=O)[O-])cc1Cl,·,0.2%,23%,2.1%,-20,·,-0.1
COc1ccc(/C=C2/SC(=O)N(CC(O)Cn3c4ccccc4c4ccccc43)C2=O)cc1 (configuration not stated),-0.4,1.3%,10%,-0.3%,-1,-17,-1.3
CC1CCCCN1S(=O)(=O)c1ccc(NC(=O)c2cccc(-n3cnnn3)c2)cc1 (configuration not stated),0.7,0.1%,9%,0.7%,0,-23,0.8
COc1cc2oc(=O)cc(-c3ccc(-c4ccc(C#N)cc4)cc3)c2c(OC)c1OC,1.1,?,-12%,1.6%,·,55,1.4
CCC1C(=O)N=C(SCC(=O)NC2CCCCC2)NC1=O (configuration not stated),0.0,-0.5%,5%,0.3%,-3,-17,-2.2
CC(=O)NCCC(=O)Nc1cc(S(=O)(=O)N2CCCCC2)ccc1Oc1ccccc1,0.2,-1.8%,11%,1.2%,-11,7,·
CCC1CCc2c(sc(NC(=O)c3cccnc3)c2C(N)=O)C1 (configuration not stated),-1.0,·,14%,5.6%,-7,-5,-3.1
Cc1c(Br)c(C(F)(F)F)nn1CC(=O)NCc1ccccc1,0.1,0.2%,7%,1.4%,-17,3,5.1
CCOc1ccccc1NC(=O)C(CC(C)C)NC(=O)C1CCCCC1 (configuration not stated),-0.1,-1.7%,10%,8.1%,4,13,1.6
COc1ccc(N(C)C(=O)c2cn(C3CCCCC3)c(=O)c3c2c2ccccc2n3C)cc1,-0.7,-2.9%,·,-0.1%,·,-6,·
Cc1ccc(CNC(=O)c2csc3c2CCCCC3)cc1,0.3,-1.9%,10%,18%,-11,8,4.5
COc1ccc(C)cc1S(=O)(=O)N(CC(=O)N1CCOCC1)c1cc(C)cc(C)c1,0.8,-4.5%,7%,-0.5%,-18,27,0.8
Cc1ccc(OCc2ccc(C(=O)NN)o2)cc1C,-0.4,-2.0%,-7%,1.1%,-31,1,0.1
Cc1cccc(Cn2c(=O)n(Cc3ccccc3)c(=O)c3c2c2cc(C)ccc2n3C)c1,0.0,4.0%,·,1.1%,·,23,·
COc1cccc(C(=O)Nc2ccc(C(=O)c3ccccc3)cc2)c1,-0.6,1.0%,1%,-0.1%,4,-19,1.9
OCC1CCCCN1C(=S)Nc1ccc(Cl)cc1Cl (configuration not stated),-0.6,-1.5%,-8%,2.9%,-5,-17,-6.0
COc1ccc(-c2cc(C(=O)N3CCN(c4ncccn4)CC3)c3ccccc3n2)cc1OC,1.1,-14%,·,-0.3%,-14,83,·
O=[N+]([O-])c1cccnc1N1CCC(c2cc(-c3cccc(C(F)(F)F)c3)n[nH]2)CC1,1.2,-0.7%,15%,1.7%,0,7,3.7
CN1CCN(CCc2nc3cc(NC(=O)COc4ccccc4)ccc3n2C)CC1,-0.5,0.0%,12%,-2.1%,0,-1,-0.7
COc1ccc(C)cc1NC(=O)CNC(c1ccccc1)c1ccc(C)cc1 (configuration not stated),2.0,-0.9%,-4%,5.9%,-4,76,0.4
CC1=C(C(=O)Nc2ccccc2)C(c2ccccn2)n2nc(SCc3ccccc3)nc2N1 (configuration not stated),-0.1,-2.3%,·,12%,·,3,·
O=C(NCc1ccccc1)C(Cc1ccccc1)N1C(=O)C2C3CCC(C3)C2C1=O (configuration not stated),0.4,-1.5%,20%,2.2%,-13,-8,-1.0
CCCn1c(=O)c2c(nc3n2CCCN3Cc2ccccc2)n(C)c1=O,3.8,-2.4%,-7%,-1.5%,18,-1,3.9
O=C(C1CCC(=O)N(C2CC2)C1)N1CCC(Oc2cccc(F)c2)CC1 (configuration not stated),-0.3,-1.6%,8%,0.9%,14,-15,-0.7
COc1ccc(-c2nnc(SCC(=O)Nc3ccc(C)cc3)n2C)cc1,0.2,0.3%,15%,1.9%[38.3 µM],-7,-9,2.0
COC(=O)CCCNC(=O)c1ccc(OS(=O)(=O)c2cc([N+](=O)[O-])ccc2C)cc1,3.0,·,·,1.8%,-7,-1,·
CCOC(=O)c1cnc2ccccc2c1Nc1cccc(OC)c1,-0.1,-1.0%,·,1.7%,·,-5,·
CC(=O)N1CCN2C(=O)C1CCCC(=O)c1cc(C3CCCCC3)ccc12 (configuration not stated),0.0,-5.8%,8%,-2.4%,-6,-12,-0.6
COc1ccc(C(=O)C2CCCN(Cc3cc(Cl)ccc3O)C2)c(OC)c1 (configuration not stated),1.0,·,13%,4.3%,0,26,1.6
COCCNc1c(-c2ccc(OC)c(OC)c2)nc2ccc(Cl)cn12,-0.7,-3.3%,17%,4.6%,14,-4,1.8

Some of the entries so far, with values under each structure:
Values run as follows: TRPML1 ag | ClpP mod | Sfp PPTase inh | PINK1 expr mod | TRPV1 PAM | TRPML1 blocker | Menin MLL FP FL
> COCCNc1c(-c2ccc(OC)c(OC)c2)nc2ccc(Cl)cn12
 : -0.7 | -3.3% | 17% | 4.6% | 14 | -4 | 1.8
> COc1ccc(C(=O)C2CCCN(Cc3cc(Cl)ccc3O)C2)c(OC)c1 (configuration not stated)
 : 1.0 | · | 13% | 4.3% | 0 | 26 | 1.6
> CCOC(=O)c1cnc2ccccc2c1Nc1cccc(OC)c1
 : -0.1 | -1.0% | · | 1.7% | · | -5 | ·
> CC(=O)N1CCN2C(=O)C1CCCC(=O)c1cc(C3CCCCC3)ccc12 (configuration not stated)
 : 0.0 | -5.8% | 8% | -2.4% | -6 | -12 | -0.6
> COc1ccc(-c2nnc(SCC(=O)Nc3ccc(C)cc3)n2C)cc1
 : 0.2 | 0.3% | 15% | 1.9%[38.3 µM] | -7 | -9 | 2.0
> COC(=O)CCCNC(=O)c1ccc(OS(=O)(=O)c2cc([N+](=O)[O-])ccc2C)cc1
 : 3.0 | · | · | 1.8% | -7 | -1 | ·
